# Assay outcomes deposited in PubChem BioAssay by ICCB-Longwood Screening Facility, Harvard Medical School.
# Sa growth inh – inhibitors of Staphylococcus aureus growth at 42 °C; relative growth, % (concentration not given with the values); 0.53% of 170,000 active; S. aureus RN4220 growth, OD600, 20 h; hits give low values;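 active = growth at 42 °C up to 50% and 20 or more points under that at 30 °C, or under 10% at both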;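 note: 300 nL library stock went into each well; scaled to the means of positive and negative controls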
# GIV Gai3 FP – inhibitors of GIV GBA-motif binding to rat Galpha-i3. Galpha-i3/FITC-GIV peptide fluorescence polarization, 90 min; hits give low values; scaled: aluminum fluoride 0%, vehicle 100%. percent of control (FP), % (concentration not given with the values). AID 1224905. 0.42% of 210,000 active;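 active = replicate mean at 85% of control or lower, very high polarization wells dropped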;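 note: wells of about 15 µL received 100 nL stock; the first replicate is given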
# Target sequence (P08753 whole entry, looked up): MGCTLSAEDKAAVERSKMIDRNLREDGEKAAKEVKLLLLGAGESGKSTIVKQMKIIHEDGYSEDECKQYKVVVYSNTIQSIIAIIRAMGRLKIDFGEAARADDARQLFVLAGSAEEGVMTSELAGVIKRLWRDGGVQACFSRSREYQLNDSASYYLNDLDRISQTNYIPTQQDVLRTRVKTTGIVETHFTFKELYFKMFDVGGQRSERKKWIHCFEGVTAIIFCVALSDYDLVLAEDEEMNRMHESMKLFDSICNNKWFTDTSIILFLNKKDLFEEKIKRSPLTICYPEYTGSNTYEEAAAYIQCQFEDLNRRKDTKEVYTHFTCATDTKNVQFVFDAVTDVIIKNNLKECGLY
# HCMV NEC inh – disrupts HCMV UL50-UL53 complex binding | AID 1918969 | HTRF UL50-UL53 interaction, normalized percent inhibition | 0.15% of 190,000 active | inhibition, % (concentration not given with the values);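 active = both replicates at 50% or more, plus weaker picks with an unusually low signal ratio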;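 note: stock transfer was 100 nL into about 20 µL; 0% = negative control wells and 100% = wells with untagged competitor protein; inactives centre near -12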
# Sa growth inh second temp – recorded beside Sa growth inh, whose call it bears; relative growth, %; measured here: growth at 30 °C;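 optical density after 20 h as mean of two plates; 100% = untreated growth and lower means inhibition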
# The depositor's hits bear a star; nt = no result given; & = joins results of further samples.
SMILES,Sa growth inh,Sa growth inh second temp,GIV Gai3 FP,HCMV NEC inh
COc1ccc(OC)c(NC(=O)c2sc3ncnc(N4CCCCC4C)c3c2C)c1 (stereo not drawn),nt,nt,102,-21
O=C1CCc2ccccc2CN1,77,94,106,-17
COC(=O)C12C3CC4C5C(C(=NNC(N)=S)C41)C2C53 (stereo not drawn),64,88,nt,-20
Cc1ccccc1Nc1ncnc2c1c(-c1ccccc1)cn2-c1ccc(F)cc1,97,84,100,nt
COc1ccc2c(c1)C1CC(C)(NC(=O)C1C(=O)c1ccccc1)O2 (stereo not drawn),86,84,105,7
O=C(CCC1N=C2c3ccccc3N=C(SCc3ccc(F)cc3)N2C1=O)NCc1ccco1 (stereo not drawn),99,69,106,-11
Cc1c(C(=O)O)sc2ncnc(N3CCc4ccccc4C3)c12,nt,nt,104,-13
Cc1n[nH]c(C)c1N1C(=O)c2cccc3c(N4CCCCC4)ccc(c23)C1=O,71,91,-6.8*,-116
O=C(Nc1ccccc1C(=O)NCC1CCCO1)C1=CSCCO1 (stereo not drawn),nt,nt,101,-29
CCC(=O)Nc1noc2ccccc12,nt,nt,101,4
CCOC(=O)C1CCN(C(=O)c2nn(-c3ccc(C)cc3)c(=O)c3c2c2ccccc2n3C)CC1,112,88,101,-25
CCSc1nc2c([nH]c3ccccc32)c(=O)n1-c1cccc(OC)c1,101,82,101,nt
COc1ccc(CC(=O)NC2CC(=O)N(c3cccc(F)c3)C2)cc1OC (stereo not drawn),110,86,95,nt
COc1ccc(-c2nc3ccccc3s2)cc1NC(=O)c1ccc2c(c1)OCCO2,nt,nt,108,2
CC(C(=O)N1CCc2ccccc21)n1nc(-c2ccccc2)ccc1=O (stereo not drawn),106,90,108&105,-9&1
CC(C)(C)NC(=O)CCSc1ccccc1,112,100,103,-9
CC(NC(=O)CSc1nn(-c2ccccc2)c(=S)s1)c1ccccc1 (stereo not drawn),92,90,nt,-11
CCCCCC(C)N (stereo not drawn),100,99,nt,-8
C/C(=C/C(=O)N1CCN(C)CC1)C(=O)O,96,90,104,nt
Cc1ccc(-c2nc3sc(CCNS(=O)(=O)c4cc(F)ccc4F)c(C)n3n2)cc1,121,92,100&103,nt
CCOc1ccc(NC(=O)c2cnn3c2NC(c2cccc(OC)c2)=CC3c2ccccc2)cc1 (stereo not drawn),111,84,111,nt
C#CC(C)OC(=O)Nc1cnccc1C(F)(F)F (stereo not drawn),105,100,103,11
COc1ccccc1NC(=O)CN1C(=O)CSc2ccc(S(=O)(=O)N3CCCC3)cc21,94,66,104,nt
COc1ccccc1CNC(=O)C(C)n1c(=O)cc(-c2ccccc2)c2c(C)nn(C)c21 (stereo not drawn),81,73,103,nt
Fc1ccccc1-c1ccc(CNCc2ccco2)o1,nt,nt,96,-14
SMILES,Sa growth inh,Sa growth inh second temp,GIV Gai3 FP,HCMV NEC inh
CCCCN(c1ccccc1C(=O)O)S(=O)(=O)c1ccc(OC)cc1,107,103,104,-15
CCN(CCN(C)C)c1ccc(C(=O)O)cc1NS(C)(=O)=O,nt,nt,103,-38
CCCNC(=O)c1ccc2c(c1)N=C(C)c1c(C)ccc(C)c1S2,94,73,102,-38
CCOc1ccccc1N(C)C(=O)Cn1nc(Cc2cccnc2)c2ccccc2c1=O,99,90,99,-16
O=C(Cc1ccccc1)Nc1cccc(N2C(=O)C3CC=CCC3C2=O)c1 (stereo not drawn),103,101,100,-3
Cc1ccc(-c2cc(C(F)F)nc(S(C)(=O)=O)n2)cc1,36*,63*,99,-18
Cc1nnc(NC(=O)CC2CC3CCC2C3)s1 (stereo not drawn),102,106,103,-18
COc1ccc(C2C3=C(CC(c4ccccc4O)CC3=O)Nc3onc(C)c32)cc1O (stereo not drawn),nt,nt,98,0
Cc1ccc(NC(=O)C2C3C=CC(C3)C2C(=O)O)cc1 (stereo not drawn),91,90,98,0
Cc1cccc(-n2ncc3c(NC4CCCC4)ncnc32)c1,65,91,100,nt
COc1cccc(C(=O)N2CCCc3ccccc32)c1,89,92,nt,12
Cc1ccc(C)c(CSc2nc3c([nH]c4ccccc43)c(=O)n2C)c1,105,85,103,nt
O=C(CN1CCN(c2ncccn2)CC1)N(Cc1ccccc1)c1ccc(F)cc1,122,87,107,0
COc1ccc(OC)c(/C=c2\s/c(=C(/C#N)c3nnc4n3CCCCC4)n(-c3ccccc3)c2=O)c1,96,100,nt,11
O=C(NCCC1=CCCCC1)c1cc(=O)[nH]c2ccccc12,74,82,nt,-32
CC1(C)CC(=O)C2=C(C1)Nc1cc(C(=O)c3ccccc3)ccc1NC2c1cccc([N+](=O)[O-])c1 (stereo not drawn),nt,nt,111,-5
Cc1ccc(CNC(=O)c2cc(S(=O)(=O)N3CCCCC3)cn2C)cc1,100,85,99,nt
O=C1NCCN1CCNS(=O)(=O)c1cccs1,91,90,101,-14
Cc1cc(-n2nc(C)cc2C)nc(NS(=O)(=O)c2ccccc2Cl)n1,nt,nt,107,5
CC(C)(C)NC(=O)N1CCC2(CC1)CC(=O)c1ccccc1O2,95,86,98,-15
Cc1cccc(N2CCN(C(=O)c3cn(C4CCCCC4)c(=O)c4c3c3ccccc3n4C)CC2)c1C,102,92,108,6
CCOCCN1CCN(c2c3c(nc4cc(-c5cccc(C)c5)nn24)CCC3)CC1,95,79,102,1
CN(C(=O)C(Cc1ccccc1)n1cccc1)C1CCCCC1 (stereo not drawn),83,80,97,nt
COc1ccc(NC(=O)c2ccco2)cc1NC(=O)C(C)C,113,92,104,3
CC(C)(C)Nc1nc(NN)nc(NC(C)(C)C)n1,67,78,102,5

# Reformatted bar-delimited: part of the list above.
smiles | Sa growth inh | Sa growth inh second temp | GIV Gai3 FP | HCMV NEC inh
COc1ccc(CC(=O)NC2CC(=O)N(c3cccc(F)c3)C2)cc1OC (stereo not drawn) | 110 | 86 | 95 | nt
COc1ccc(-c2nc3ccccc3s2)cc1NC(=O)c1ccc2c(c1)OCCO2 | nt | nt | 108 | 2
CC(C(=O)N1CCc2ccccc21)n1nc(-c2ccccc2)ccc1=O (stereo not drawn) | 106 | 90 | 108&105 | -9&1
CC(C)(C)NC(=O)CCSc1ccccc1 | 112 | 100 | 103 | -9
CC(NC(=O)CSc1nn(-c2ccccc2)c(=S)s1)c1ccccc1 (stereo not drawn) | 92 | 90 | nt | -11
CCCCCC(C)N (stereo not drawn) | 100 | 99 | nt | -8
C/C(=C/C(=O)N1CCN(C)CC1)C(=O)O | 96 | 90 | 104 | nt

# Part of the list above in order of formula weight, falling:
SMILES,Sa growth inh,Sa growth inh second temp,GIV Gai3 FP,HCMV NEC inh
Cc1cccc(N2CCN(C(=O)c3cn(C4CCCCC4)c(=O)c4c3c3ccccc3n4C)CC2)c1C,102,92,108,6
CC1(C)CC(=O)C2=C(C1)Nc1cc(C(=O)c3ccccc3)ccc1NC2c1cccc([N+](=O)[O-])c1 (stereo not drawn),nt,nt,111,-5
Cc1cc(-n2nc(C)cc2C)nc(NS(=O)(=O)c2ccccc2Cl)n1,nt,nt,107,5
CCN(CCN(C)C)c1ccc(C(=O)O)cc1NS(C)(=O)=O,nt,nt,103,-38
COc1ccc(NC(=O)c2ccco2)cc1NC(=O)C(C)C,113,92,104,3
COc1cccc(C(=O)N2CCCc3ccccc32)c1,89,92,nt,12

# Other results.
SMILES,Sa growth inh,Sa growth inh second temp,GIV Gai3 FP,HCMV NEC inh
C=C(C)Cn1c(=O)c2c(nc3n2CCN3c2ccc(F)cc2)n(C)c1=O,104,87,107,nt
O=C(CSc1nnc(CNC(=O)c2cccs2)o1)NCC1CCCO1 (stereo not drawn),92,82,102,-45
COc1cccc(NC(=O)CCS(=O)(=O)c2ccccc2)c1,99,94,109,2
Cn1c(O)c(N=NC(=O)c2ccccc2)c2ccccc21,93,103,108,-17
O=C(Nc1cccc(Cl)c1)c1ccc(CN2C(=O)CCn3nccc32)cc1,nt,nt,101,-11
COc1ccc(C2=NN(CN3C(=O)C(=O)c4cc(Br)ccc43)C(c3ccc(OC)cc3)C2)cc1 (stereo not drawn),nt,nt,98,-15
O=C(NC1CC(=O)N(c2ccccc2)C1)C1CC1 (stereo not drawn),107,98,104,6
Nc1ncnc2c1nc(Br)n2C1OC2COP(=O)(O)O[C@@H]2C1O (stereo partly drawn),nt,nt,100,-26
O=C(NC1=NCCS1)C1Cc2ccccc2CN1C(=O)c1ccco1 (stereo not drawn),117,101,nt,-6
COc1cc(C(Nc2ccc(S(=O)(=O)N3CCCC3)cc2)C(=O)NC(C)(C)C)cc(OC)c1OC (stereo not drawn),99,82,103,-19
O=C(Nc1nccs1)c1ccc(S(=O)(=O)NCC2CCCCC2)cc1,108,96,97,-13
Clc1ccccc1CNc1ncnc2c1nc1n2CCCC1,123,90,111,nt
O=C(Nc1ccccc1N1CCCC1)c1ccco1,100,89,nt,-1
Cc1cc(C)n2nc(CN(C(=O)CC(C)C)c3ccccc3Cl)nc2n1,nt,nt,109,-12
CC(C)C1CCC(C(=O)N[C@H](Cc2ccccc2)C(=O)O)CC1 (stereo partly drawn),99&84,89&64,106,-10
Fc1ccccc1Nc1nc(NCc2ccccc2)c2ccccc2n1,78,51,110,nt
Cc1ccc(-n2nc(C)c(C3=CCCCC3)c2N)cc1,85,85,nt,-17
CN(C)c1oc(-c2ccc(S(=O)(=O)N(C)Cc3ccccc3)cc2)nc1C#N,nt,nt,102,-24
CCCOc1cccc(C(=O)N2CCCCC2CCN2CCCCC2)c1 (stereo not drawn),97,91,102,-28
O=C(CN(Cc1ccccc1Cl)C(=O)c1cccc(F)c1)N1CCNCC1,nt,nt,108,-1
CCCS(=O)(=O)N1CC(=O)N(c2ccc(Cl)cc2C)C(C)(C(=O)NC2CCCC2)C1 (stereo not drawn),82,81,108,nt
CC(=O)NC(C(N)=O)C(SCc1ccccc1)c1c[nH]c2ccccc12 (stereo not drawn),84,85,97,-15
CCOC(=O)c1sc2ncccc2c1N,90,97,109,12
COC(=O)c1ccccc1NC(=O)CSc1ncc(S(=O)(=O)c2ccc(C(C)(C)C)cc2)c(=O)[nH]1,nt,nt,101,-19
Cn1c(/C(C#N)=N/OC(=O)c2ccccc2)nc2ccccc21,95,88,117,-38
SMILES,Sa growth inh,Sa growth inh second temp,GIV Gai3 FP,HCMV NEC inh
CCOC(=O)C1C(=O)C=C(c2cccs2)CC1c1ccc(C)cc1 (stereo not drawn),88,69,103,nt
CCCC(C)C(=O)N1CCC(Cc2ccccc2)CC1 (stereo not drawn),96,106,101,7
CCOC(=O)c1cnc2c(ccc3ccccc32)c1NC1CC(C)(C)NC(C)(C)C1,123,75,97,nt
Cc1cc(C)c(NC(=O)C2Nc3ccc(Cl)cc3S(=O)(=O)N2)c(C)c1 (stereo not drawn),nt,nt,104,-13
CC(CS(=O)(=O)c1ccccc1)N1CCCCC1 (stereo not drawn),100,88,nt,-10
Cc1ccc(-c2noc(CCC(=O)N3CCCCC3C)n2)cc1 (stereo not drawn),96,83,110,0
COc1cccc(NC(=O)CSc2nc(=O)n(Cc3ccco3)c3c2CCC3)c1,153,82,102,nt
COc1ccc(Cn2c(=O)c3ccccc3n3c(-c4ccccc4O)nnc23)cc1,114,93,110,8
O=C1NC(=NC2CCCC2)S/C1=C\c1cn(-c2ccccc2)nc1-c1cccs1,95,95,nt,7
O=C1NC(=Nc2ccccc2)SC1Cc1ccc(Br)cc1 (stereo not drawn),nt,nt,101,-27
O=C(O)c1cc(C(=O)O)c2cccc(Cl)c2n1,81,86,nt,-27
COc1cccc(CN2C(=O)c3ccccc3Sc3ccc(C(=O)OCc4ccco4)cc32)c1,87,91,100,nt
CC(=O)Nc1ccc(S(=O)(=O)NCC2CCC(C(=O)NCCN(CC(C)C)CC(C)C)CC2)cc1 (stereo not drawn),79,91,101,nt
COc1ccc(N/C=C(/C#N)c2nc(-c3cccs3)cs2)cc1,104,73,106,-6
Cc1oc2c(cc(NS(=O)(=O)c3ccc(F)cc3)c3ccccc32)c1C(=O)OCc1ccccc1,81,84,108,-48
COC(=O)c1[nH]c2ccccc2c1NC(=O)CN(C)C,nt,nt,105,-35
N#Cc1c(NC(=O)CCCCl)sc2c1CCC2,88,96,nt,8
CCCOc1ccc(/C=C2/SC(=O)N(CN3CCCCC3)C2=O)cc1,67,43,96,nt
Clc1nc2ccccc2c(N2CCOCC2)c1CNc1ccc(N2CCOCC2)cc1,115,81,103,-4
COc1nc2c(c(C)nn2-c2ccc(C)cc2)c(C)c1CCC(=O)NCC1CCCO1 (stereo not drawn),nt,nt,105,-30
O=C(NCCO)c1cc2sc3ccccc3c2s1,116,83,nt,-40
O=C(c1c[nH]c2ccccc12)C(c1ccccc1)N1CCN(c2ccc(O)cc2)CC1 (stereo not drawn),135,96,nt,-19
COc1ccc(OC)c(-c2csc(=NC(C)C)n2/N=C2\C(=O)N(C)c3ccccc32)c1,146,77,nt,-40
C/[N+]([O-])=C\c1ccc(C(F)(F)F)cc1,108,89,nt,-52
O=C(O)CC1(CC(=O)Nc2ccc(OC(F)(F)F)cc2)CCCC1,94,80,98,-9
CCOc1ccc(NC(=O)C(=O)NCCc2csc3nc(-c4ccccc4F)nn23)cc1,90,90,99,nt
CN(C)C(CNC(=O)Cc1ccc(Cl)c(Cl)c1)c1ccco1 (stereo not drawn),89,89,nt,-18
CC(C)CC1NC(=O)N(Cc2cccc(Br)c2)C1=O (stereo not drawn),97,91,nt,-29
Cc1cc(NC(=O)c2cccs2)no1,81,76,98,-25
